Assay outcomes (PubChem BioAssay)
TRPML1 ag = human mucolipin-1 channel agonism | Q9GZU1 | TRPML1-expressing cells, Ca2+ dye fluorescence, FDSS; host cell line not named in the record; reference of the full effect not given here | 410,000 tested, 0.12% active | activation, % (concentration not given with the values); in the data active = activation above about 50%; inconclusive = about 30% to 50%; inactive = below about 30%; also: 0% is about no effect; the text of the record puts the active cut at 80%
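Tet-induced TRPML1-DL cells, 1,500 per well, cultured overnight, were loaded with a no-wash Ca2+ dye for 45–90 min. Calcium fluorescence was recorded on the FDSS for 110 s after compound addition, before the EC80 agonist (4 uM 54-4) was added.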
D2 agonist = activates the human D2 dopamine receptor. AID 624465. P14416. activation, % (concentration not given with the values). 360,000 tested, 0.084% active. DiscoveRx PathHunter D2 beta-arrestin, luminescence, 90 min; 100% = 57 uM dopamine signal; in the data active = activation above about 40%; inconclusive = about 15% to 40%; inactive = below about 15%; also: compound concentration not given in the record; the text of the record calls up to 30% inactive
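Agonist mode: compounds alone added to overnight-plated D2 PathHunter cells for 90 min at 37 C, with 57 uM final dopamine (EC100) defining full response. Beta-arrestin recruitment detected by chemiluminescent reagent, read after 1 h at ambient temperature.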
CtBP-E1A blk = blocks the CtBP interaction with E1A. AID 651724. activity change, % (test concentration not listed). 340,000 tested, 0.49% active. AlphaScreen GST-E1A/His-CtBP binding, 1536-well; active compounds read low; control for the full effect not named in the record; in the data active means activity change below about -65%; inconclusive means about -30% to -65%; inactive means above about -30%; also: % is scaled to controls: 0 for no effect and ±100 for the full control effect
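GST-E1A and His-tagged CtBP (125 nM each as 5X stock) were preincubated with pin-transferred compound for 2 h at 37 °C in the dark, then glutathione donor and nickel acceptor beads were added for 1 h before AlphaScreen reading.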
PINK1 expr mod = changes PINK1 expression; PINK1 immunofluorescence, high-content cytometry, 24 h; Potency, µM (titrated, usually from 76.6 µM), inactives show at the highest dose activation (PINK1 increase), usual class: activators; 410,000 tested, 0.2% active; active = well fitted activation curve with a large enough effect; inconclusive = small, poorly fitted or top-dose-only effect; inactive = flat fitted curve, though single readings scatter; cell line not stated here;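 also: potency is read from the fitted curve at half-maximal effect; % of control where 0% means no effect; nearly all actives have a fitted effect of over 65% in size; a mitochondrial uncoupler was the plate control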
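Measures PINK1 amount and localization on or inside mitochondria by immunofluorescence. Stable cells get compounds at 5 concentrations for 24 hours before fixation and staining; CCCP controls included.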
Six1-Eya2 inh = inhibitors of human Six1/Eya2 interaction; AlphaScreen GST-Six1/His-Eya2 binding, biochemical; active compounds read low; control for the full effect not named in the record; activity change, % (concentration not given with the values); 360,000 tested, 0.56% active; AID 651725; in the data active = activity change below about -65%; inconclusive = about -30% to -65%; inactive = above about -30%; also: % is scaled to controls: 0 for no effect and ±100 for the full control effect
Target sequence (O00167 whole entry, looked up): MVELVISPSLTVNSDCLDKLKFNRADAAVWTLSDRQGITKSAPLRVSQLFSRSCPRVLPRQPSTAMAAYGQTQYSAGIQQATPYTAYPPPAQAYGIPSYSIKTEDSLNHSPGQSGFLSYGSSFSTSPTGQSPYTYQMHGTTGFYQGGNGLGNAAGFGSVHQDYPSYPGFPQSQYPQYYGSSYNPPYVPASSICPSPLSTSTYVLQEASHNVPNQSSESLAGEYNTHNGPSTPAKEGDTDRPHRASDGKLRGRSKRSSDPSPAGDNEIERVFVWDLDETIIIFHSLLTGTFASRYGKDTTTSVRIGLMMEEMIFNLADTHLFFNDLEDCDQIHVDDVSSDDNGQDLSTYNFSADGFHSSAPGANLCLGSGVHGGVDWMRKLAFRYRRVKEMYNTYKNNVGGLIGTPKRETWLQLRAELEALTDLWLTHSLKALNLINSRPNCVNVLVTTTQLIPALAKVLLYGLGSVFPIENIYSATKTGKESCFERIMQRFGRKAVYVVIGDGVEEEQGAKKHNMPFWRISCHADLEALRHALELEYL
Target sequence (Q15475 whole entry, looked up): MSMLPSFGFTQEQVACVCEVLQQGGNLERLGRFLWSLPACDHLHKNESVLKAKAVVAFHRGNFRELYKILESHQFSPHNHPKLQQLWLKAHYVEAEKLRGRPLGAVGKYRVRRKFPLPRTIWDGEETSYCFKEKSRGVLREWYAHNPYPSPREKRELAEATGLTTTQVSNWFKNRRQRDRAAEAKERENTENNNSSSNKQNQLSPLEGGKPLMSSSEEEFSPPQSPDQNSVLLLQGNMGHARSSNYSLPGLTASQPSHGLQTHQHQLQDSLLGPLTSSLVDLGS
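AlphaScreen luminescence read after one hour at 37 °C in darkness. Pin-transferred compounds met GST-Six1 and His-Eya2 protein (5X stock 250 nM/500 nM) plus glutathione donor and Ni-chelate acceptor beads (5X, 50 ug/mL).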
TRPML1 inh = blocks the human TRPML1 channel. 390,000 tested, 0.02% active. Q9GZU1. activity change, negative = inhibition, % (test concentration not listed). TRPML1-inducible cells, Ca2+ dye fluorescence, FDSS; active compounds read low; inhibition of EC80 agonist-evoked calcium signal; in the data active means activity change below about -50%; inconclusive means about -30% to -50%; inactive means above about -30%;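 also: stimulus is agonist 54-4 at its EC80 concentration; % is scaled to controls: 0 for no effect and ±100 for the full control effect; compound concentration not given in the record; the text of the record puts the active cut at -80%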
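Tet-induced TRPML1-DL cells loaded with Ca8 no-wash calcium dye were read kinetically on FDSS. Compound addition was followed by EC80 agonist 54-4 (4 uM final); inhibition was read over 110 s.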
Active calls of the source: *; ? = inconclusive; . = no result given; [ ] = another dose, or the depositor's remark. Random draw from the library. About 1% of those tested had a hit in this group.

SMILES	TRPML1 ag	D2 agonist	CtBP-E1A blk	PINK1 expr mod	Six1-Eya2 inh	TRPML1 inh
O=C(COc1ccccc1F)NCc1ccc(-n2cccc2)cc1	0.4	-4.4	0	0.6%	?	0
O=C(c1ccccc1Br)N1CCC(c2nc3ccccc3s2)CC1	0.9	-4.8	.	2.5%	2	20
COc1ccc(C)cc1-n1c(SCC(=O)Nc2cc(C)on2)nc2sc(C)c(C)c2c1=O	-0.2	-0.3	-1	-0.6%	-4	0
COc1ccccc1N(CC(=O)N/N=C/c1ccccc1C(=O)O)S(C)(=O)=O	0.0	-1.1	-10	2.6%	0	25
COc1ccc(/C=N/NC(=O)c2cc(-c3cccn3C)n[nH]2)cc1OC	0.3	2.1	?	1.9%	?	-11
CCC(c1nnnn1Cc1ccccc1)N(Cc1cc2cc(OC)ccc2[nH]c1=O)CC1CCCO1 (centres undefined)	0.2	-2.6	-3	-0.9%	-4	-14
Cc1ccccc1Nc1c(-c2ccco2)nc2c(C)cccn12	0.1	.	.	-0.3%	.	1
Cc1ccc(CNC(=O)CCS(=O)(=O)c2cc(Br)cc3c2N(C(=O)C2CC2)CC3)o1	-0.3	-0.8	-10	3.5%	-12	-11
CCOC(=O)c1ccc(NC(=O)Cn2nnc(-c3ccc(F)cc3)n2)cc1	0.2	0.6	7	2.6%	20	63
Cc1c(C(=O)NCc2ccccc2)oc2ccc(S(=O)(=O)N3CCC(C)CC3)cc12	-0.2	.	.	3.9%	.	-13
O=S(=O)(Nc1cccc(-c2ccc3nncn3n2)c1)c1cccs1	-0.6	-0.5	-4	2.1%	-11	1
Cc1ccc(S(=O)(=O)Nc2nc(C)cc(-n3nc(C)cc3C)n2)cc1	-0.5	-2.0	-3	-2.4%[38.3 µM]	-17	6
CCOc1cc(N2CCOCC2)c(OCC)cc1NC(=O)c1ccc(OC)c(S(=O)(=O)N2CCOCC2)c1	-0.4	-0.4	6	0.3%	3	-5
Oc1c(Cl)cc(Cl)cc1CNn1cnnc1	-0.7	-5.3	-16	2.0%	-12	-12
Cc1ccc(NC(=O)Cn2c(=O)n(Cc3ccccc3)c(=O)c3c2c2cc(C)ccc2n3C)cc1	-0.4	.	.	0.5%	.	-14
CC(C)C(=O)Nc1nnc(SCC(=O)N2c3ccccc3CC2C)s1 (centres undefined)	1.6	-3.5	-11	-4.4%	4	13
O=C(NN=Cc1ccccc1)C(Oc1ccccc1)c1ccccc1 (centres undefined)	4.5	-0.6	-6	5.8%	4	-1
CCC(CC)C(=O)c1c[nH]c(C(=O)NCc2ccccc2)c1	-0.8	1.0	.	2.4%	-1	19
CCC(C)NC(=O)c1cc2c(=O)n3ccccc3nc2s1 (centres undefined)	.	-10	2	2.5%	2	.
CC(C)N1CCN(C(=O)c2ccc([N+](=O)[O-])cc2)CC1	1.3	-13	.	1.8%	-4	8
O=C1C(c2ccc(F)cc2)N(Cc2ccc3c(c2)OCO3)C(=O)CN1C1CCCC1 (centres undefined)	0.1	-3.7	-6	7.1%[38.3 µM]	-2	7
Cc1cc(C)n2nc3nc(N4CCCC4)nc(-c4ccccc4)c3c2n1	-1.1	-3.8	-1	2.1%	-3	0
N#Cc1ccc(COC(=O)c2ccc(N3CCCC3)c([N+](=O)[O-])c2)cc1	0.0	-1.1	-24	9.3%	?	-4
Cc1ccc(-n2c(C)cc(C(=O)COc3cccnc3[N+](=O)[O-])c2C)cc1	0.6	-1.9	-1	5.5%	1	8
Cc1cc(NS(=O)(=O)c2ccc(NC(=O)COc3ccc(Cl)cc3)cc2)no1	-1.8	0.0	7	2.8%	-3	3
CCN1C[C@@H]2[C@@H]3C(=O)N(C)C(=O)[C@@H]3[C@](CC)(C1=O)N2C(=O)c1ccc(C(F)(F)F)cc1	-0.5	-0.9	6	0.4%	1	-11
CCN(CC)C(=O)c1ccc(Cn2cc([N+](=O)[O-])cn2)o1	0.0	-1.6	.	0.2%	0	-9
CCOc1ccc2nc(N3CCCC(C(=O)NCCCOC)C3)sc2c1 (centres undefined)	-1.2	.	.	1.0%	.	4
COc1ccc(NC(=O)C2CCCN2C(=O)OC(C)(C)C)cc1 (centres undefined)	0.4	-3.8	2	-1.1%	1	3
COc1ccccc1C(=O)N1CCN(c2cccc(C(F)(F)F)c2)CC1	-0.6	-4.4	-1	3.0%	0	-4
O=C(NCc1cccnc1)c1nc(-c2ccc(C(F)(F)F)cc2)no1	0.3	-1.1	15	5.1%	0	0
COc1ccc(CNC(=O)C(c2ccc(C)o2)N(Cc2cccs2)C(=O)Cc2cccs2)cc1 (centres undefined)	1.6	-2.7	-4	-1.7%	-10	6
Cc1ncc([N+](=O)[O-])n1CC(=O)NC(C)(C)C	0.5	-2.9	-14	-0.8%	-6	-17
Cc1cccc(OCCC(=O)Nc2cc(S(=O)(=O)N3CCCCC3)ccc2N2CCOCC2)c1	2.5	-3.6	-2	0.6%	5	1
Cc1ccc(/C=N/OC(=O)c2nn(C)cc2Cl)cc1	1.1	-3.4	13	5.4%	6	-5
Clc1ccc2nc(-c3ccccc3)c(Cc3ccsc3)n2c1	-0.1	-2.5	2	4.7%	-4	-11
CC(=O)Nc1ccc(C2Nc3c(C)cc(C)cc3-c3cc(C)nn32)cc1 (centres undefined)	0.3	.	.	0.5%	.	16
O=C(CN1C(=O)C2CCCCC2C1=O)Nc1ccc(OC(F)F)c(Cl)c1 (centres undefined)	1.0	2.9	0	0.9%	4	-3
COc1ccccc1CCN1CCCC(CN(C)C(=O)c2ccoc2)C1 (centres undefined)	-0.7	-2.0	2	-0.8%	1	-4
CCOc1ccc(CNC(=O)c2cnc3sc(N4CCOCC4)nn3c2=O)cc1OC	2.3	.	.	0.0%	.	-17
Cc1cc(OCCN2CCCCC2)nc2ccccc12	0.4	-5.5	7	3.8%	8	-4
CC(c1ccccc1)N1C(=O)c2ccc(C(=O)NCc3cccnc3)cc2C1=O (centres undefined)	-0.6	-2.8	-3	3.0%	-2	7
O=C(Nc1cnn(Cc2ccc(F)cc2)c1)c1noc2c1CCCC2	1.1	-0.5	.	0.8%	1	1
O=C1N[C@H](Cc2ccccc2)COC(=O)[C@@H](Cc2ccc(F)cc2)CC/C=C/C[C@H]1CC(=O)N(CCO)Cc1ccccc1	0.0	-8.0	-3	-1.1%	-8	22
CC(C)C(C(=O)NCc1ccco1)N(CC1CCCO1)C(=O)CNS(=O)(=O)c1ccc(F)cc1 (centres undefined)	-0.4	-3.1	-2	0.9%	9	26
CCOc1ccccc1NC1=CC(=O)CC(c2ccccc2)C1 (centres undefined)	0.2	-1.3	0	2.0%	-2	12
COc1ccccc1C(C(=O)NC1CCCC1)N(C(=O)c1csnn1)C1CC1 (centres undefined)	-0.2	-2.7	9	2.4%	9	-7
Cc1ccc(NC2CCCN(C(=O)c3cc(C(C)C)[nH]n3)C2)cc1C (centres undefined)	0.9	-5.6	8	-2.5%	-4	6
CN(C)c1ccc(/C=N/NC(=O)c2sccc2-n2cccc2)cc1	1.8	3.0	21	2.4%	-5	8
COc1ccc(/C(N)=N/OC(=O)CCCc2ccccc2)cc1	5.5	9.8	76	2.3%	87	20

An excerpt from above in order of number of heavy atoms, ascending.
SMILES	TRPML1 ag	D2 agonist	CtBP-E1A blk	PINK1 expr mod	Six1-Eya2 inh	TRPML1 inh
Cc1ccc(/C=N/OC(=O)c2nn(C)cc2Cl)cc1	1.1	-3.4	13	5.4%	6	-5
COc1ccccc1C(C(=O)NC1CCCC1)N(C(=O)c1csnn1)C1CC1 (centres undefined)	-0.2	-2.7	9	2.4%	9	-7
CC(C)C(C(=O)NCc1ccco1)N(CC1CCCO1)C(=O)CNS(=O)(=O)c1ccc(F)cc1 (centres undefined)	-0.4	-3.1	-2	0.9%	9	26

(next part)
SMILES	TRPML1 ag	D2 agonist	CtBP-E1A blk	PINK1 expr mod	Six1-Eya2 inh	TRPML1 inh
CC1CCCCC1NC(=O)CCNS(=O)(=O)c1cc(Br)cnc1N (centres undefined)	0.7	1.2	.	1.6%	4	2
CC(C)Cc1nnc(NC(=O)CCC(=O)N2CCN(c3ccccn3)CC2)s1	0.1	0.6	7	12%[38.3 µM]	5	-4
Cc1cccn2c(=O)c(C=O)c(N3CCCCCC3)nc12	0.2	-2.9	1	-5.0%[38.3 µM]	-4	11
O=C1c2ccccc2CCC12N=NCC2c1ccc(Br)cc1 (centres undefined)	1.0	3.8	0	.	9	42
CC(=C/c1ccccc1)/C=N/NC(=O)c1nnn(-c2nonc2N)c1CN1CCC(C)CC1	2.4	0.4	-1	?	-8	16
CCCCn1c(N)c(N(CC(C)C)C(=O)c2cccc(S(=O)(=O)N3CCN(C)CC3)c2)c(=O)[nH]c1=O	-0.3	-4.2	10	0.1%	0	-10
CCOC(=O)c1c(C)[nH]c(C)c1C(=O)CN1C(=O)NC2(CCCCCC2)C1=O	-0.2	0.6	.	0.2%	0	-6
C=C1CCN([C@@H](CC(C)C)C(=O)N2CCOCC2)S(=O)(=O)c2ccccc21	0.1	-0.9	4	-0.7%	4	5
CC(=O)N1CCC(O)(c2ccc3c(c2)OCO3)CC1	0.3	-3.5	4	-1.6%	4	-14
Cc1nc2c(ncn2-c2ccccc2)c(=O)n1NC(=O)CN1CCCC1	-0.7	-0.1	.	0.4%	6	-8
COc1ccccc1NCCC(=O)OCC(=O)NC1CCCC(C)C1C (centres undefined)	1.8	-3.6	-6	0.4%	1	-14
CCCCNC(=O)c1ccccc1NC(=O)CCC	5.0	2.7	-12	-1.5%	-3	17
COc1ccc(/C(O)=C2/C(=O)C(=O)N(CCN3CCOCC3)C2c2cccnc2)cc1OC (centres undefined)	0.3	-0.2	3	0.4%[38.3 µM]	3	0
